# KCNQ2 enhance: potentiators of rat KCNQ2 potassium channel; Potassium voltage-gated channel subfamily KQT member 2 (Rattus norvegicus), O88943; CHO-K1 KCNQ2, FluxOR thallium flux fluorescence; stronger effect = higher value; B-score at 10 µM; actives 0.54% (n = 310,000); AID 2239, 2010;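 active = fluorescence ratio B-score at least 3 SD of library B-scores, with initial fluorescence B-score within 3 SD, cut at about 5.3 in these data; same plate scores as AID 2156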;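 note: B-score of peak minus minimum over baseline fluorescence ratio after K+ and Tl+ stimulus; positive B-score means potentiation of KCNQ2 with more thallium influx and brighter signal; only the inactives scoring about 0 or higher are listed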
# Target sequence (O88943 whole entry, looked up): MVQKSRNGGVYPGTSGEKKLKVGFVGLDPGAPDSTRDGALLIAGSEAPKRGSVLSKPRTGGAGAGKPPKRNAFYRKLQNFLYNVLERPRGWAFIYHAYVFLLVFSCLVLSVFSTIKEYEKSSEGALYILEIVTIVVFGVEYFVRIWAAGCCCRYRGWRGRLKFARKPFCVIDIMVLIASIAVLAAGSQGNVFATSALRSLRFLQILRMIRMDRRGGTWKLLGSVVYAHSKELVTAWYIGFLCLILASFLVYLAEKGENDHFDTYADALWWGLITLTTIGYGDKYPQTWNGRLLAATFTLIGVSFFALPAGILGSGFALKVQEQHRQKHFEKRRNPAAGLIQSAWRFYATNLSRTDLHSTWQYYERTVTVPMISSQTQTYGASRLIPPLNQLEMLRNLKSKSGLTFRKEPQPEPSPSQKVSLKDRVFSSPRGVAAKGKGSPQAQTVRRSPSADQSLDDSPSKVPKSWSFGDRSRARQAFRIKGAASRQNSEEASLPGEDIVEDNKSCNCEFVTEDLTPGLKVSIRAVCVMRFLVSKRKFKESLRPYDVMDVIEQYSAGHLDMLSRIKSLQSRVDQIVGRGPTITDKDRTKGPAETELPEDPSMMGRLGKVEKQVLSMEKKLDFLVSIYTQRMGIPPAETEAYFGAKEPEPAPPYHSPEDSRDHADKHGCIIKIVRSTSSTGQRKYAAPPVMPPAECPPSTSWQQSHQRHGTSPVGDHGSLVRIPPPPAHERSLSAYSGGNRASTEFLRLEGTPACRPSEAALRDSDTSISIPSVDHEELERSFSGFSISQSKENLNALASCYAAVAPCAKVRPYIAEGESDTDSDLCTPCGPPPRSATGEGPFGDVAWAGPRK
# KCNQ2 enhance baseline: second read-out of KCNQ2 enhance, no call of its own (marks repeat the call); B-score; compound at 10 µM; measured here: initial fluorescence intensity artifact check;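 brightness before thallium and not channel activity; 0 = typical well and far values either way flag optical interference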
# The depositor's hits bear a star; & = joins results of further samples. A portion of the library; rates above refer to the full screens.
compound,KCNQ2 enhance,KCNQ2 enhance baseline
O=C(c1cnsn1)N1CCCC(Nc2ccc(F)c(F)c2)C1 (centres undefined),0.36,-1.2
CCOCCCn1c(=S)[nH]c2ncccc2c1=O,1.7,0.97
Cc1onc(NC(=O)NC(=O)c2ccccc2F)c1Br,0.48,-0.62
Cc1ccc(S(=O)(=O)Nc2c(Cl)c(Cl)c(O)c3ccccc23)cc1,6.4*,-0.34*
COc1ccccc1NC(=O)c1ccc(NC(=O)CNC(=O)c2ccc(OC)c(OC)c2)cc1,0.54,-0.23
O=C(CN1C(=O)c2ccccc2S1(=O)=O)Nc1cccnc1,1.5,0.66
CC(C)C(=O)Nc1c2c(nn1-c1ccc([N+](=O)[O-])cc1)CS(=O)(=O)C2,0.01,-1.8
O=C(N=Nc1c(O)[nH]c2ccc([N+](=O)[O-])cc12)c1cc(-c2ccccc2Cl)nc2ccccc12,1.6,-0.33
COC(=O)C1(CCSC)NC(c2ccco2)C2C(=O)N(C)C(=O)C21 (centres undefined),1.6,-0.5
COC(=O)c1cc(=O)nc2sc3ccccc3n12,2.2,1.9
O=C(O)c1c2c(nc3ccccc13)CCCCC2,0.91,-0.3
COc1ccc2nc(N(CCN(C)C)C(=O)c3ccc(C(=O)c4ccccc4)cc3)sc2c1,0.08,-0.03
CC1N(C)c2cccc3cccc(c23)N1C,0.07,0.55
CCNC(=S)Nc1ccc(Cl)cc1Cl,0.28,1.8
Cc1ccc(NCC(=O)N=Nc2c(O)[nH]c3ccc([N+](=O)[O-])cc23)cc1,0.65,0.86
O=c1c2ccccc2c(C=NCCCN2CCOCC2)c(O)n1Cc1ccc2c(c1)OCO2,0.1,-0.46
COc1ccc(Nc2nc(-c3cccs3)nc3ccccc23)cc1,0.52,-0.54
Cc1cc(C)c(C)c(Oc2ncnc(N)c2[N+](=O)[O-])c1,0.9,1.4
Cc1ncc(CO)c2c1Oc1nc(-c3ccccc3F)nc(SCC(=O)N(C)c3ccccc3)c1C2,0.22,-0.56
COc1ccc(-c2cc(C(F)(F)F)c(C#N)c(=O)[nH]2)cc1,3.7,0.62
COc1cccc(Nc2nc(-c3ccccc3O)nc3ccccc23)c1,1.5,1.2
CCOc1ccccc1N1CCN(C(=O)c2ccccc2SCC(=O)N2CCCC2)CC1,0.37,-2.4
CC[C@]1(c2ccccc2)C(=O)N(C(=O)OC)N1C(=O)OC,1.5,-0.64
O=C(NCCc1ccccc1)C1c2ccccc2C(=O)N1Cc1cccs1 (centres undefined),1.9,-0.47
O=C(CC12CC3CC(CC(Br)(C3)C1)C2)Nc1nncs1,0.17,1.3
CCCCN(C(=O)CC(c1ccccc1)c1ccccc1)c1c(N)n(CCC)c(=O)[nH]c1=O,0.35,-0.7
c1ccc(Cn2nnnc2C(c2cccs2)N2CCOCC2)cc1 (centres undefined),0.38,-0.66
CCN(CC)S(=O)(=O)c1ccc(N2CCOCC2)c(NC(=O)c2ccc(C#N)cc2)c1,0.57,-1.7
CCC1CC(C(=O)Nc2ccccc2)C(=O)O1 (centres undefined),2.5,0
Brc1cccc(-c2n[nH]c(-c3ccccc3)n2)c1,0.21,1.2

# Among those listed so far, these contain a carbonyl joined to an NH by a bond outside any ring:
compound,KCNQ2 enhance,KCNQ2 enhance baseline
Cc1onc(NC(=O)NC(=O)c2ccccc2F)c1Br,0.48,-0.62
COc1ccccc1NC(=O)c1ccc(NC(=O)CNC(=O)c2ccc(OC)c(OC)c2)cc1,0.54,-0.23
O=C(CN1C(=O)c2ccccc2S1(=O)=O)Nc1cccnc1,1.5,0.66
CC(C)C(=O)Nc1c2c(nn1-c1ccc([N+](=O)[O-])cc1)CS(=O)(=O)C2,0.01,-1.8
O=C(NCCc1ccccc1)C1c2ccccc2C(=O)N1Cc1cccs1 (centres undefined),1.9,-0.47
O=C(CC12CC3CC(CC(Br)(C3)C1)C2)Nc1nncs1,0.17,1.3
CCN(CC)S(=O)(=O)c1ccc(N2CCOCC2)c(NC(=O)c2ccc(C#N)cc2)c1,0.57,-1.7
CCC1CC(C(=O)Nc2ccccc2)C(=O)O1 (centres undefined),2.5,0

# The results go on:
compound,KCNQ2 enhance,KCNQ2 enhance baseline
O=C(CSc1nc2ccccc2o1)NC1CCCC1,0.02,0.02
Cn1c(=O)c2c(nc(SCc3cccnc3)n2Cc2ccc(F)cc2)n(C)c1=O,1.4,-1.7
O=C(NCC1CCCO1)C1CCN(C2CCN(C(=O)C3CCCCC3)CC2)CC1 (centres undefined),1.2,-0.27
O=C(Nc1cccc2ccccc12)c1ccc(F)cc1,4.5,-1.5
CCN1CCN(C(=O)/C=C/c2ccc3c(c2)OCO3)CC1,0.24,0.22
N=c1c2c3c(sc2ncn1Cc1ccco1)CCCCC3,0.74,0.22
CCCCC1(CO)C(=O)N(c2ccccc2)N(c2ccccc2)C1=O,0.29,0.85
Cc1cc(C)c(C)c(C(=O)COC(=O)CNC(=O)CN2C(=O)c3ccccc3C2=O)c1C,0.54,-0.01
Cc1ccc(S(=O)(=O)NCC(C)n2cncn2)cc1 (centres undefined),0.14,0.23
COc1ccc(CCN2CC(C(=O)N(C)C3CCOCC3)CCC2=O)cc1 (centres undefined),1.8,-0.71
Cn1c(N)c(S(=O)(=O)c2ccc(Br)cc2)c2nc3ccccc3nc21,1.2,-0.02
COc1ccc(C(=O)NC(=S)Nc2ccc(N3CCCC3)cc2)cc1OC,0.36,2.9
COc1ccc(Oc2ccc3c(C(F)(F)F)cc(C(F)(F)F)nc3n2)cc1,0.24,1.4
Cc1cccc(Nc2nc(N)c([N+](=O)[O-])c(NCCO)n2)c1,0.5,-0.18
O=C(Nc1ccc(S(=O)(=O)NCC2CCCO2)cc1)c1ccccc1 (centres undefined),0.57,-0.08
CC(=O)N1Cc2cc([N+](=O)[O-])ccc2Oc2ccccc21,1.9,-0.61
CCOC(=O)N1CCN(C(=O)CSc2ccc3nnc(-c4ccncc4)n3n2)CC1,0.47,-0.13
CCn1c(CNC(=O)C2CCCCC2)cc2cc(C)ccc21,0.55,0.45
NC(=O)NC(=O)COC(=O)c1ccccc1Oc1ccccc1,0.77,1.2
COC(=O)c1ccc(NC(=O)c2cn(-c3ccccc3)nc2-c2ccncc2)cc1,0.72,0.97
C=CCn1c(=S)[nH]c2ccc(Br)cc2c1=O,5.9*,2.4*
CCC1=NN2C(=N)/C(=C\c3cccn3-c3ccc(C)c(C)c3)C(=O)N=C2S1,0.41,0.07
Cc1cccc(Nc2nc(-c3c(C)nc4ccccn34)cs2)c1,1,-1
Cc1cc(NS(=O)(=O)c2ccc(Nc3nc(-c4ccc(C)c(C)c4)cs3)cc2)no1,0.87,-1.7
CCc1ccc(N(C(=O)CNC(=O)c2ccco2)C(C(=O)NC2CCCC2)c2cccnc2)cc1 (centres undefined),0.01,-0.22
CCOc1ccc(NC(=O)NCCCN2CCCC2)cc1,0.9,-2.5
Cc1cccc(C)c1NC(=O)c1cccc(N2C(=O)C3CCC(C)CC3C2=O)c1 (centres undefined),0.01,0.34
CC(=O)Nc1cccc(C(=O)Nc2ccc(S(=O)(=O)N3CCCCC3)cc2)c1,1.5,0.46
Clc1cc(Br)ccc1OCCOCCN1CCOCC1,1.1,0.64
CN1CCc2c(c3c(n2C)CCN(C)[C@@H]3c2cccnc2)[C@H]1c1cccnc1,1.3&0.09,0.49&-1.6
CC(=O)Nc1c(C(=O)c2ccccc2)oc2ccccc12,0.14,0.05
O=C(NCc1ccco1)c1cccc(NC(=O)c2ccccc2)c1,0.73,1.4
COc1ccc(-c2nnc(NC(=O)Cc3ccccc3)s2)c(OC)c1,1.6,-1
O=C(NC1CC1)C1=C[C@@H](c2ccc(Br)cc2)C[C@@H](OCCCCO)O1,0.14,-0.48
COc1ccc(S(=O)(=O)N2CCN(C(=O)NC3CCCCC3)CC2)cc1,0.01,0.73
COc1ccccc1/C=N/NC(=O)COCC(=O)N/N=C/c1ccccc1OC,0.12,1.3
COc1ccc(N2CCN(CC(O)COC(C)(C)C)CC2)cc1 (centres undefined),0.89,0.03
CCOC(=O)c1c(C)[nH]c(C)c1S(=O)(=O)N1c2ccccc2CC1C (centres undefined),0.29,0.85
CCCn1c(C)cc(C(=O)COc2ccc(C)nc2[N+](=O)[O-])c1C,0.86,-1.4
CCC(=O)c1c[nH]c(C(=O)NCc2cccs2)c1,1,0.1
CC(C)c1nnc(SCC(=O)NCCC2=CCCCC2)n1N,5.9*,-2.3*
O=C(NCCCN=C1NS(=O)(=O)c2ccccc21)c1ccc(F)cc1,0.05,-0.51
O=C(NCc1ccccc1Cl)C1CCN(S(=O)(=O)N2CCCCCC2)CC1,0.4,1.5
FC(F)(F)c1nnc2ccc(-n3ccnc3)nn12,1.4,-0.02
COc1cc(C(=O)Nc2ccc(OCC(=O)N3CCOCC3)cc2C)cc(OC)c1OC,1.5,0.71
CC(NC(=O)c1ccc(N(C)C)cc1)C(c1cccs1)N1CCN(C)CC1 (centres undefined),0.23,-1.5
CC1(C)Cc2c(cnn2-c2ccc(F)cc2)C(NC(=O)c2ccoc2)C1 (centres undefined),0.47,0.12
CCCN(C(=O)CCNC(=O)Cn1cnc2ccccc2c1=O)c1cccc(C)c1,0.38,-0.41
O=C(Nc1nnc(Cc2ccccc2)s1)C1CCN(C(=O)c2ccco2)CC1,1.2,1.1
CC(=O)c1c(C)[nH]c(C(=O)CSc2nnc(-c3ccco3)n2Cc2ccccc2)c1C,0.43,-0.08
O=C(O)CC1S/C(=N\N=C/c2ccccc2O)N(c2ccc(O)cc2)C1=O (centres undefined),0.21,0.49
CN1CCN(Cc2nc3c([nH]2)c(=O)[nH]c(=O)n3C)CC1,0.25,-0.04
COc1cccc(N2CCN(c3nc(C)c(C)c(=O)[nH]3)CC2)c1,1.1,0.16
COc1ccc(NC(=S)N2CCN(Cc3ccco3)CC2)c(OC)c1,0.11,1.6
O=C(OCCCN1C(=O)c2ccccc2C1=O)c1ccco1,0.03,0.7
Cn1c(=O)c2c(nc(N3CCc4ccccc4C3)n2C)n(C)c1=O,0.22,-0.85
O=c1[nH]c(C2CCN(S(=O)(=O)c3ccccc3)CC2)nc2c1nnn2Cc1cccc(Cl)c1,1.1,-4.8
O=C(N/N=C\c1cccc(Cl)c1)c1n[nH]c2c1CCCC2,3.1,0.07
COc1ccc(N(CC(=O)N2CCc3ccccc3C2)S(C)(=O)=O)cc1OC,0.01,0.03
CC1(C)Cc2c(sc(NC(=O)COc3cccc4ccccc34)c2C#N)C(C)(C)N1,0.33,-1.9

# Continuation.
Structure | KCNQ2 enhance | KCNQ2 enhance baseline
O=C(O)c1cccc(NC(=S)NC(=O)c2cncc(Br)c2)c1 | 0.56 | 0.69
O=C(Nc1ccc(S(=O)(=O)N2CCCC2)cc1)C1CCN(S(=O)(=O)c2ccc(F)cc2)CC1 | 0.73 | -1.5
COc1cc(/C=C(\C#N)C(=O)N2CCOCC2)ccc1OCc1ccccc1 | 0.59 | -0.67
CC(=O)Nc1ccc(NC(=O)CC23CC4CC(CC(C4)C2)C3)cc1 | 2.2 | 2.6
CCOC(=O)c1sc(NC(=O)CC)nc1C | 1.6 | -0.1
CCOCC(=O)Nc1ccc(C(=O)Nc2ccccc2Cl)cc1 | 1.7 | 0.57
CCCN1CCN(CCCNC(=O)Cn2nc(-c3ccccc3)ccc2=O)CC1 | 0.36 | 0.68
CCOc1ccccc1Nc1cc2n(c(=O)n1)CCc1cc(OC)c(OC)cc1-2 | 1.1 | -1.5
CCOC(=O)c1ccc2ncc(C(=O)OCC)c(NCCCN3CCOCC3)c2c1 | 0.03 | -0.47
CSc1nc(N)c2c3c(sc2n1)COC(C(C)C)C3 (centres undefined) | 1.4 | 0.04
CCOC(=O)C1(Cc2ccc(OC)cc2)CCN(C(=O)c2cncs2)CC1 | 1.2 | -1.5
COCCCNC(=O)C(CC(N)=O)NC(=O)OCc1ccccc1 (centres undefined) | 2 | -0.66
CCC1Sc2ccc(S(=O)(=O)Nc3cc(OC)cc(OC)c3)cc2NC1=O (centres undefined) | 0.13 | -0.51
COc1ccc(C(=O)NCC(=O)NC2=NCCS2)cc1 | 1 | 0.01
N=c1c(S(=O)(=O)c2ccc(Cl)cc2)cc2c(=O)n3ccccc3nc2n1CCN1CCOCC1 | 0.29 | -0.78
O=C(NCCCN1CCOCC1)c1cc(Cl)ccc1[N+](=O)[O-] | 1.2 | -0.03
CCCc1cc(C(=O)N/N=C/c2ccc(C)o2)c2ccccc2n1 | 0.18 | 1.2
COC(=O)c1ccc(C(=O)OC)c(NC(=O)C2CC2)c1 | 1.5 | 0.15
Cc1cc(NC(=O)COC(=O)c2c(C)nn(-c3ccccc3)c2C)no1 | 0.16 | 1.6
CC(c1ccccc1)n1cnc2ccccc2c1=O (centres undefined) | 0.02 | -0.66
CN1CCN(C(=O)c2cn(-c3ccccc3)nc2-c2cccs2)CC1 | 0.66 | 1.1
CCOP(=O)(OCC)/C(=N/OC(=O)c1ccc(OC)cc1)C(N)=O | 2.4 | 0.71
O=C(NCC1CCCO1)C(c1ccncc1)N(Cc1cccs1)C(=O)Cn1nnc(-c2ccc(F)cc2)n1 (centres undefined) | 0.86 | 0.36
Cc1ccc(C(=O)N2CCN(c3ccccc3)CC2)cc1NC(=O)c1ccco1 | 0.08 | 2.1
Cc1ccc(S(=O)(=O)N(C)CC(=O)N2CCCCCC2)cc1 | 0.46 | -0.68
COc1ccc(-c2cc(C(F)(F)F)nc(-n3cc(Cl)cn3)n2)cc1 | 0.32 | -2.9
O=C(O)c1ccc2c(c1)C(=O)N(c1ccc(C(=O)OCC(=O)c3ccccc3)cc1)C2=O | 0.68 | 0.01
COc1ccccc1N1CCN(CC(=O)Nc2nccs2)CC1 | 0.8 | 0.25
